# Source: PubChem BioAssay (National Center for Advancing Translational Sciences (NCATS))
# VDR inhibitor: inhibitors of human vitamin D receptor; 0.93% of 400,000 active; Potency, µM, inactives show max response, negative = inhibition, actives largely listed as inhibitors; AID 504847; VDR-SRC2-3 peptide fluorescence polarization, 2 h; active = well fitted inhibition curve with a large enough effect; inconclusive = small, poorly fitted or top-dose-only effect, or another doubt; inactive = no such curve, though single readings can be large or run the other way; note: series mostly up to about 120 µM
# Target sequence (P11473 whole entry, looked up): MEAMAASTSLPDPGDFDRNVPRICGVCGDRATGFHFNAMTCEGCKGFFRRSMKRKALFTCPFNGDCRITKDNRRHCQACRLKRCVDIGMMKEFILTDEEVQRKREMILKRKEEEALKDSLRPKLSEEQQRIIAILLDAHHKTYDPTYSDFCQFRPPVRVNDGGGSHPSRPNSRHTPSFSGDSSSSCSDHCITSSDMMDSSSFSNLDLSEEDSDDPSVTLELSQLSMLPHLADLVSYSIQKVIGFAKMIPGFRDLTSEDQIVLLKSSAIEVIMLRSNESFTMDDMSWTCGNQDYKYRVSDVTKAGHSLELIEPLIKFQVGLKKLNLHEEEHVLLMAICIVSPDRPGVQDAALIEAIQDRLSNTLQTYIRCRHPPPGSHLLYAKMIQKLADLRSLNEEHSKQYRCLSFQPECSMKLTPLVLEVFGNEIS
#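 Fluorescence polarization assay measuring small-molecule disruption of VDR binding to the coregulator peptide SRC2-3. Compounds were pin-transferred (23 nl) into the reagent mix and incubated 2 h at room temperature before reading.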
# Active calls of the source: *; ? = inconclusive; [ ] = another dose, or the depositor's remark. % is set by controls: 0 for no effect and ±100 for the full control effect; potency is the fitted concentration of half-maximal effect.
canonical_smiles,VDR inhibitor
O=S(=O)(c1ccc(S(=O)(=O)N2CCC(O)CC2)cc1)N1CCCC1,21%
CCN(C(=S)NC(=O)CCc1ccccc1)c1ccccc1,-17%
COc1ccc(CNC(=O)Cn2nc([N+](=O)[O-])c(Br)c2C)cc1OC,-10%
COc1ccc(-n2nc(C(=O)NCC(=O)Nc3cc(OC)c(OC)c(OC)c3)c3ccccc3c2=O)cc1,-3%
CNNC(=O)C(C)NC(=O)c1ccc(Br)cc1 (configuration not stated),16%
COc1cccc(N(C(=O)c2sc(C)nc2C)C(C(=O)NCC2CCCO2)c2ccccc2)c1 (configuration not stated),?
Cc1cccc(NC(=O)CN(C)S(=O)(=O)c2cnc[nH]2)c1C,6%
C[C@H]1CN([C@@H](C)CO)C(=O)c2cccc(NC(=O)C3CC3)c2O[C@H]1CN(C)Cc1ccc(-c2ccccc2)cc1,6%
C=CCN1C(=O)c2ccccc2Sc2ccc(C(=O)N3CCN(C)CC3)cc21,-5%
O=C(Nc1ccc(N2CCOCC2)cc1)c1cccc(S(=O)(=O)N2CCCC2)c1,1%
CN(C)c1ccc(N2CC(C)(C)C2=O)cc1,4%
CCc1nc2ccc(C(=O)Nc3ccc(NC(C)=O)cc3)cc2nc1CC,-12%
CCn1c(SCC(=O)Nc2nccs2)nnc1-c1ccc(S(=O)(=O)N2CCCCC2)cc1,18%
O=C(c1csnn1)N1CCC2(CCN(Cc3ccccc3)CC2)CC1,-11%
CCOc1ccccc1NC(=O)Cn1c(=O)n(CCCCC(=O)NCCCOC)c(=O)c2ccccc21,0%

# The final 5 records of the section above lead into the next:
canonical_smiles,VDR inhibitor
CN(C)c1ccc(N2CC(C)(C)C2=O)cc1,4%
CCc1nc2ccc(C(=O)Nc3ccc(NC(C)=O)cc3)cc2nc1CC,-12%
CCn1c(SCC(=O)Nc2nccs2)nnc1-c1ccc(S(=O)(=O)N2CCCCC2)cc1,18%
O=C(c1csnn1)N1CCC2(CCN(Cc3ccccc3)CC2)CC1,-11%
CCOc1ccccc1NC(=O)Cn1c(=O)n(CCCCC(=O)NCCCOC)c(=O)c2ccccc21,0%
CCCCn1c(CNC(=O)C23CC4CC(CC(C4)C2)C3)nnc1SCC(=O)Nc1ccc(F)cc1,-7%
O=C(Cn1c(=O)oc2cc(S(=O)(=O)NCc3ccccc3)ccc21)NCc1ccc(F)cc1,-1%
O=C1N=c2ccccc2=C1c1[nH]c(=S)[nH]c1O,3%
O=C(NCC1CCCO1)NC12CC3CC(CC(C3)C1)C2 (configuration not stated),-6%
COc1ccccc1N(CC(O)Cn1ccnc1C)S(=O)(=O)c1ccccc1 (configuration not stated),-27%
Cc1nc2cccnc2n1C1CCN(C(=O)Nc2ccccc2)CC1,4%
CC(C)(C)c1ccc(C(=O)NCC(=O)OCC(=O)N2CCN(S(=O)(=O)c3ccc(Cl)cc3)CC2)cc1,-5%
COc1cc2c(cc1OC)C1(O)C(=O)c3ccc(O)c(C(=O)O)c3OC1CO2 (configuration not stated),7%
Cc1ccc(NC(=O)c2ccc(-n3cccn3)c([N+](=O)[O-])c2)cc1,-25%
Cc1c(OC(C(=O)O)c2ccccc2)ccc2c1oc(=O)c1ccccc12 (configuration not stated),-23%
CC(C)Oc1cccc(NC(=O)c2cnccc2C(F)(F)F)c1,-9%
COc1ccc(Nc2nc(C)nc3c2nnn3Cc2ccccc2Cl)c(OC)c1,-7%
Cc1ccc(Cl)cc1NC(=O)Cn1cc(C(F)(F)F)cc(Cl)c1=O,-3%
CCN1CCN(C2CCCCC2NS(=O)(=O)c2ccc(Cl)cc2)CC1 (configuration not stated),-25%
Cc1cccc(NC(=O)CCCC(=O)OC(C)C(=O)c2ccccc2)c1 (configuration not stated),2%
CCn1nnnc1SCC(=O)N1CCCc2ccccc21,-19%
COc1ccccc1C(=O)NCC1CCN(c2ccc(S(=O)(=O)N3CCOCC3)cc2)CC1,2%
COc1ccc2[nH]c3c(=S)nc[nH]c3c2c1,3%
CCOc1ccccc1CN1CCNC(=O)C1CC(=O)N(C)C1CCOCC1 (configuration not stated),19%
CN(CC(=O)Nc1c(Cl)cccc1Cl)C(=O)C1CC(=O)N(Cc2ccccc2)C1 (configuration not stated),-8%
CC(C)n1c(SCC(=O)Nc2nc3c(s2)CCCC3)nc2c1c(=O)n(C)c(=O)n2C,-12%
CCOC(=O)C1CCCN(CCC(C)c2ccccc2)C1 (configuration not stated),4%
CCn1c(SCC(=O)N2CC(=O)Nc3ccccc32)nnc1-c1ccoc1C,-4%
CCCC12CN3CC(CCC)(CN(C1)C3c1c[nH]c3ccccc13)C2=O (configuration not stated),3%
Cc1nnc2n(-c3ccccc3)c(=O)c3ccccc3n12,0%
COc1ccc(Br)cc1CNC(=O)CCc1nc(-c2ccc(C)cc2)no1,-4%
CN1C(=O)N(CC(=O)N2CCN(c3ccccc3F)CC2)C(=O)C12CCCCC2,-13%
CCN(CC)c1ccc(S(=O)(=O)N2CCOCC2)cc1NC(=O)C1CC1,9%
COc1cc(OC)cc(C(=O)N2CCN(c3ccccn3)CC2)c1,6%
O=C1c2ccccc2-c2onc3ccc(N4CCCC4)c1c23,?
Cc1nc2c(c(C)c1CCC(=O)Nc1ccc(F)cc1)c(=O)n(C)c(=O)n2C,8%
Cc1nc(-c2cc(-c3ccc(Cl)cc3)no2)cs1,-14%
Cc1c(NC(=O)c2ccccc2)c(=O)n(-c2ccccc2)n1C,16%
S=c1[nH]nc(Cc2cccs2)n1-c1cccc2ccccc12,-12%
O=C(NCc1ccco1)c1ccc(CS(=O)(=O)Cc2ccc(Cl)cc2)o1,0%
O=S(=O)(NCc1ccc(C(F)(F)F)cc1)c1ccc(-n2cnnn2)cc1,-9%
Cc1cc([N+](=O)[O-])nn1Cc1ccc(F)cc1,0%
CCC(C)(C)C1CCc2[nH]nc(C(=O)NCC3CC3)c2C1 (configuration not stated),-9%
CC(C)(C)C(=O)NC(NC(=S)Nc1ccc(S(N)(=O)=O)cc1)C(Cl)(Cl)Cl (configuration not stated),7%
CN(C)C(=O)N1CCC(C(=O)NCc2cccs2)CC1,-13%
CC(C)COc1ccc(-c2nonc2NC(=O)c2ccc(F)cc2)cc1,13%
Cc1cc(C)nc(SCc2ccc(C(=O)N/N=C3\CCCC(=O)C3)cc2)n1,1%
CCCN(Cc1cc2cc(C)ccc2[nH]c1=O)C(=O)c1cccc([N+](=O)[O-])c1,-20%
Cn1cnnc1Sc1ccc(C(=O)NCCC(c2ccccc2)c2ccccc2)cc1[N+](=O)[O-],-20%
O=C(Cc1ccc2c(c1)CCCC2)Nc1ccc2ccccc2c1,-14%
O=C(Nc1ccc(F)cc1)C1CCN(S(=O)(=O)c2ccc3[nH]c(=O)oc3c2)CC1,-12%
CCOC(=O)N1CCN(C(=O)CNC(=O)C23CC4CC(CC(C4)C2)C3)CC1,4%
COc1cccc(-c2nn(-c3ccccc3)cc2CNC(C)Cn2cncn2)c1 (configuration not stated),16%
CC(=O)N1c2ccc(S(=O)(=O)NCC3CCC(C(=O)Nc4cccc(C)c4)CC3)cc2CC1C (configuration not stated),-9%
O=C(CSc1nnc(-c2ccc(O)cc2)o1)Nc1ccccc1,9%
CCOC(=O)C1CCN(c2ccc([N+](=O)[O-])cc2S(=O)(=O)N2CCOCC2)CC1,3%
Cc1cccc(-c2nc3ccccc3c(=O)n2NC(=O)c2cccnc2Cl)c1,8%
COc1ccccc1OCC(=O)Nc1ccc2c(c1)OCO2,?
Cc1ccc(NC(=O)/C(=C/c2ccco2)c2ccccc2)c(C)c1,7%
CCn1nnnc1SCC(=O)Nc1ccc2c(c1)OCO2,9%
Cc1ccc(C)c(NC(=O)c2cc(S(=O)(=O)N3CCOCC3)cn2C)c1,-9%
CCOc1cc(CNC(=O)c2ccc(Cn3c(=O)c4cccn4c4cccnc43)cc2)ccc1OC,7%
C=CCn1c[n+](CC(=O)c2ccc(Br)s2)c2ccccc21,2%
CCc1ccc(CNC(=O)c2ccc(NC(=O)C3=CSCCO3)cc2)cc1,131%[activator]
CS(=O)(=O)c1ccc2nc(NC(=O)c3ccc(N4C(=O)CCC4=O)cc3)sc2c1,-5%

# By substructure: the compounds so far with a thiophene ring, fused or not (three)
canonical_smiles,VDR inhibitor
S=c1[nH]nc(Cc2cccs2)n1-c1cccc2ccccc12,-12%
CN(C)C(=O)N1CCC(C(=O)NCc2cccs2)CC1,-13%
C=CCn1c[n+](CC(=O)c2ccc(Br)s2)c2ccccc21,2%

# Other results
canonical_smiles,VDR inhibitor
CCCN(C(=O)CCSc1ccc(F)cc1)c1c(N)n(Cc2ccccc2)c(=O)[nH]c1=O,-11%
COc1ccc(C)cc1NS(=O)(=O)c1cnc(N)nc1,0%
CN1/C(=C\C(=O)c2cccnc2Cl)C(C)(C)c2ccccc21,3%
CCOC(=O)C1=C(N)Oc2ccc3ccccc3c2C1c1ccc(O)cc1 (configuration not stated),-9%
Cc1cccc(CNc2ncnc3ccc(-c4ccc5c(c4)OCCO5)cc23)c1,-2%
CC1(C)O[C@H]2CC(=O)OC[C@]23[C@H]2CC[C@@]4(C)[C@H](c5ccoc5)OC(=O)[C@H]5O[C@]54[C@]2(C)[C@@H](O)C[C@@H]13,1%
O=C(CSc1n[nH]c(-c2ccccn2)n1)Nc1ccccc1,1%
CCOC(=O)c1c(Nc2ccc(OC)cc2)nnc(-c2ccccc2)c1-c1ccccc1,-8%
O=C1c2ccccc2-c2ncnc3c(N4CCOCC4)cc(N4CCOCC4)c1c23,11%
O=C1c2ccccc2[C@@H]2C[C@H]3O[C@H]3CCN12,1%
CCn1c(SCC(=O)Nc2cc(C)on2)nc2c(c1=O)SC(C)C2 (configuration not stated),-3%
Cc1nnc(Oc2ccccc2F)c2ccccc12,-2%
Cc1ccc(N2C(=O)CS(=O)(=O)C23C(=O)N(Cc2ccccc2F)c2ccccc23)cc1Cl (configuration not stated),-16%
Cc1ccc2c(c1)N(C(=O)CCC(=O)NCc1cccs1)CCO2,-11%
O=C(Nc1ccc2c(c1)OCCO2)c1cccc(S(=O)(=O)N2CCCCC2)c1,-1%
COc1ccc(C2=NOC(Cn3nc(C(=O)NCc4ccccc4OC)cc3-c3ccccc3)C2)cc1 (configuration not stated),9%
O=C(CN1C(=O)NC2(CCCCCCC2)C1=O)N1CCOCC1,17%
CC(=O)OC1COC(n2ccc3ccccc32)C(OC(C)=O)C1OC(C)=O (configuration not stated),2%
CN(Cc1ccco1)c1ncncc1-c1ccccc1Cl,28µM*
COc1ccc(NS(=O)(=O)c2ccc(NC(=O)C(C)(C(F)(F)F)C(F)(F)F)cc2)nn1,6%
CCCCN(C)c1nnc(NC(=O)Nc2cccc(C(C)=O)c2)s1,7%
CCOC(=O)C1CCCN(C(=O)CN2C(=O)C(CC)Oc3ccc(C)cc32)C1 (configuration not stated),-2%
Cc1c(C(=O)N2CCCC(C(F)(F)F)C2)oc2ccccc12 (configuration not stated),-5%
Cc1ccc(CSc2nnc(-c3cccnc3)n2N)cc1,10%
CN(Cc1ccccc1)CC(O)COc1ccc(CNCc2ccc(Cl)s2)cc1 (configuration not stated),5%
CCOC(=O)NC1CCS(=O)(=O)C1 (configuration not stated),16%
COc1ccc(C(C(=O)NCC2CCCO2)N(Cc2ccco2)C(=O)c2snc(C(N)=O)c2N)cc1OC (configuration not stated),-5%
COc1cc(OC)cc(C(=O)Nc2ccc(S(=O)(=O)Nc3ccccn3)cc2)c1,5%
COc1cc(CN2CCN(C(=O)CC(C)C)CC2)cc(OC)c1OC,16%
COc1ccc(C(=O)NCCn2cc(SCC(=O)Nc3ccc4c(c3)OCCO4)c3ccccc32)cc1OC,9%

# Exported with values ahead of the structure: 2 of the compounds above.
VDR inhibitor | smiles
9% | COc1ccc(C2=NOC(Cn3nc(C(=O)NCc4ccccc4OC)cc3-c3ccccc3)C2)cc1 (configuration not stated)
17% | O=C(CN1C(=O)NC2(CCCCCCC2)C1=O)N1CCOCC1

# (listing goes on)
canonical_smiles,VDR inhibitor
CC(C)Oc1ccc(C(=O)/C=C2/C(=O)Nc3ccccc32)cc1,28µM*
CCOc1cc(NC(=S)NCCCN2CCOCC2)c(OCC)cc1NC(=O)c1ccc(OC)cc1,0%
CSc1ccc(C2CC(=O)Oc3c2c(=O)n(C)c2ccccc32)cc1 (configuration not stated),-7%
O=C(c1c(F)cccc1F)N(Cc1ccccn1)C1CCCC1,8%
CN(C)S(=O)(=O)c1ccc(NC(=O)COC(=O)Cn2[nH]c(=O)c3ccccc3c2=O)cc1,7%
CCCCCC(=O)Nc1ccc(Cl)cn1,6%
Cc1nn2c(NCc3ccccn3)c3c(nc2c1-c1ccccc1)CCC3,12%
CN(C1CCCCC1)S(=O)(=O)c1ccc(NC(=O)CCC(=O)O)cc1,12%
CCCN1CCN(c2nnc(-n3cccc3C(=O)Nc3cc(Cl)ccc3C)s2)CC1,4%
CCc1nc2sc(C(=O)O)c(N)c2c2c1CCCC2,-8%
CCCCc1nnc(NC(=O)C2CCCO2)s1 (configuration not stated),17%
Cc1ccc(NC(=O)CSc2nc(=O)n(CCN3CCOCC3)c3c2CCC3)cc1Cl,-4%
Cc1ccc(S(=O)(=O)N/N=C/c2cn(C)nc2C)cc1,-20%

# These rows are one share of the data (hit frequency here may not be typical).
